# Assay outcomes: PubChem BioAssay, several laboratories
# MLL AF4-AF9 inh = blocks AF4 peptide binding to human AF9. AID 651704. inhibition, % at 10 µM. AlphaScreen, biotin-AF4 peptide binding to FLAG-AF9. actives 0.47% (n = 350,000). P42568;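 active = every replicate reaching a set inhibition limit, whatever the replicate mean, cut at about 25% in these data; inconclusive = mean inhibition reaches that limit but some replicates miss it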;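 also: 0% = plate neutral control median and 100% = total signal loss; the record names both 10 and 1 µM as test concentration; the first replicate is given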
# Target sequence (P42568 whole entry, looked up): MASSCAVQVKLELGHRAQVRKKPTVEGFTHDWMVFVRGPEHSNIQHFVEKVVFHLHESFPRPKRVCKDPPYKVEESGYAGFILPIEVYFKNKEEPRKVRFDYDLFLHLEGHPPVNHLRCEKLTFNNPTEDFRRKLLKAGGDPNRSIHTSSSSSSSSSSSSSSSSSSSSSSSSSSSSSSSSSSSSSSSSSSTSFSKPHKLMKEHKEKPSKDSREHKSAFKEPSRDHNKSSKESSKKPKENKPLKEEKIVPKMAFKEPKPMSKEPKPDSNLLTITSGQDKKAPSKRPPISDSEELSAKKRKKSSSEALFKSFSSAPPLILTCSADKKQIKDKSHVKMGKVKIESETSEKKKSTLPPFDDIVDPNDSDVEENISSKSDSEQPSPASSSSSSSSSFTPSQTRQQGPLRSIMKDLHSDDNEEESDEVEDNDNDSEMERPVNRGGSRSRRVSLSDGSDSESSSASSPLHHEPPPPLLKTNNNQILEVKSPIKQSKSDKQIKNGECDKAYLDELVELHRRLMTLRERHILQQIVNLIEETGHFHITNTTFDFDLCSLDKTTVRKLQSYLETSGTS
# rRNA inh HTS = selective bacterial rRNA inhibition in E. coli | E. coli WT GFP vs humanized-ribosome RFP mutants, fluorescence, 24 h; stronger effect = lower value; DMSO median 0, no signal -100 | GFP signal change (wild-type ribosome), % (no concentration beside the values) | actives 1.6% (n = 350,000) | AID 720706;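 active = significant combined selectivity score with lowered wild-type GFP, culture density cut under 30%, mutant RFP and density less affected; inactive = any of these conditions unmet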; also: one replicate is shown; some compounds called inactive have numbers as strong as hits
# Bfl-1 A1 inh = inhibitors of the anti-apoptotic protein A1, read as caspase activation. MEF A1-2A-BIM cells, Caspase-Glo 3/7 luminescence, 3 h; percent of clofoctol response, vehicle zero. caspase activation, % (test concentration not listed). actives 0.066% (n = 330,000);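 active = over half of replicate activation scores above 10%, or exactly half above 10 with the replicate mean above 10; inconclusive = replicate mean below 10 yet half the replicates above 10; inactive = over half of replicates below 10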;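 also: wells of about 30 µL received 50 nL stock; many hits fall short of the cut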
# RanGTP-Imp inh = inhibitors of RanGTP-importin-beta interaction, primary screen, biochemical, FRET, CFP-Ran, YFP-importin-beta, homogeneous; cell-free CFP-Ran/YFP-importin-beta FRET ratio; actives 1.1% (n = 300,000); AID 2216; inhibition, % (no concentration beside the values);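 active = most replicates above 15%; inconclusive = exactly half above 15%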;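 also: 0% = DMSO wells and 100% = Ran loaded with GDP instead of GTP; wells of about 40 µL received 100 nL stock; the first replicate is given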
# T cruzi repl = T. cruzi replication inhibition; T. cruzi beta-gal in NIH3T3, luminescence, 90 h; inhibition, % (concentration not given with the values); actives 1.4% (n = 300,000); AID 1885;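 active = mean inhibition across valid replicates above about 55%, limit read from the data; inconclusive = mean below that limit but half or more replicates reach it; inactive = mean below it, under half of replicates reach it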;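 also: signal also drops with host cell toxicity which is not excluded here; 0% = plate median of DMSO wells and 100% = zero luminescence signal; higher percent means less beta-gal luminescence so fewer parasites; stock transfer was 50 nL into about 50 µL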
# Beta apoptosis = beta cell apoptosis inhibition; INS-1E cytokine-induced death, ATP luminescence, 48 h; percent of positive-control rescue, neutral wells zero; protection from apoptosis, % (no concentration beside the values); actives 0.8% (n = 300,000);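 active = all replicates at 75% or more, or half of them and the mean; inconclusive = half reach 75% but not the mean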;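 also: 0% = cytokine-treated negative control wells and 100% = positive control rescue; higher means more ATP so stronger rescue from cytokine killing; wells of about 40 µL received 100 nL stock; the first replicate is given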
# Calb FLC = C. albicans growth modulation with fluconazole. C. albicans CaCi-2 (fluconazole-resistant clinical isolate) + fluconazole, Alamar Blue growth, 48 h. growth inhibition, % (concentration not given with the values). actives 0.57% (n = 300,000). AID 1979;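 active = most replicates above 75%; inconclusive = exactly half above 75%; inactive = most below 75%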;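 also: all wells also contain fluconazole at 8 µg/ml as a sub-toxic cotreatment; 0% = median of DMSO wells and 100% = median of geldanamycin control wells; wells of about 8 µL received 7.5 nL stock; the first replicate is given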
# Vif A3G = HIV-1 Vif–A3G interaction blockers – biochemical, TR-FRET, GST-Vif 1-94, biotin-A3G peptide, dose response retest, primary screen (AID 1117319) | TR-FRET GST-Vif / biotin-A3G peptide binding; higher % means a stronger effect; test concentration not given here; strong numbers were not always called active | one-dose inhibition, %; IC50 in µM for titrated hits | actives 0.57% (n = 260,000);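 active = above the screen mean plus three standard deviations and confirmed in dose response; inconclusive = results disagree or hit not tested in dose response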;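 also: Vif residues 1-94 fused to GST binding biotinylated APOBEC3G peptide 110-148; 0% = full assay without inhibitor and 100% = GST in place of GST-Vif; retest series ran down from 100 µM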
# rRNA inh HTS OD600 = also measured in rRNA inh HTS; calls as there; OD600 change, %; measured here: OD600 growth;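 optical density of the mix in the first replicate; 0 = DMSO median and -100 = no signal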
# rRNA inh HTS RFP = also measured in rRNA inh HTS; calls as there; RFP signal change, %; measured here: RFP humanized mutant strains;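 first replicate; 0 = DMSO median and -100 = no signal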
# * marks the source's active call; other numbers are inactive results; ? = inconclusive; nt = not tested or not shown; & = joins results of further samples. This is a subset. The share of hits here may be higher or lower than overall.
SMILES,MLL AF4-AF9 inh,rRNA inh HTS,rRNA inh HTS OD600,rRNA inh HTS RFP,Bfl-1 A1 inh,RanGTP-Imp inh,T cruzi repl,Beta apoptosis,Calb FLC,Vif A3G
COc1ccc(-n2cc(-c3ccccc3)nc2SC)cc1,9.2,-24,-29,-7.6,-1.0,9.4,16,-2,1,5%
COc1ccc(N(CC(=O)Nc2ccccc2C)S(=O)(=O)c2c(C)[nH]c(=O)[nH]c2=O)cc1,-16,-3,-1,-4.0,1.1,?,-17,-2,-9,nt
COc1ccc(NS(=O)(=O)c2cccc(N/C(=N\S(=O)(=O)c3ccccc3)c3ccc(F)cc3)c2)cc1,1.7,-15,-18,14,-0.2,?,-28,11,11,nt
Cc1ccc(Cl)cc1NC(=O)c1cc(NC(=O)C2CCCCC2C(=O)O)ccc1N1CCOCC1 (centres undefined),-2.0,-10,-12,1.0,0.0,0.9,2,-4,19,nt
COCCNC(=S)N/N=C(\C)c1ccc(C)c([N+](=O)[O-])c1,nt,nt,nt,nt,-0.2,3.6,-3,2,-4,1%
Cc1ccc2c(c1)-c1cc(C)nn1C(c1sccc1C)N2 (centres undefined),nt,nt,nt,nt,0.2,4.2,5,nt,?,19%
CCCC(=O)N1CCN(C2=NS(=O)(=O)c3ccccc32)CC1,nt,nt,nt,nt,-0.1,8.2,-11,-4,-15,14%
O=C(N/N=C/c1cc2c(cc1Br)OCO2)c1ccccn1,-0.5,4,4,-3.8,-6.7,5.0,-12,16,-1,7%
COc1ccccc1CNC(=O)c1ccc(Cl)c(NC2=NC3CS(=O)(=O)CC3S2)c1 (centres undefined),15,-5,-1,-3.4,-0.2,0.1,5,-4,-1,nt
COc1ccc(C2=NN(C(=O)CSc3nc(=O)n4cc(C)ccc4n3)C(c3ccc(C)cc3)C2)cc1 (centres undefined),-5.6,0,0,18,0.3,-2.8,24,nt,0,-58%
Cc1cccc(-c2nnc(SCc3ccc(C#N)cc3)n2Cc2ccco2)c1,nt,nt,nt,nt,0.0,-1.5,30,7,6,1%
COC(=O)c1cc(NC(=S)NC(=O)c2ccccc2)ccc1N1CCOCC1,2.9,-3,-14,-2.4,0.0,-4.0,-6,2,5,-4%
CCC(=O)c1cn(CC(=O)Nc2ccccc2F)c2ccccc12,-3.0,-4,-8,-2.6,-0.3,0.3,-3,-1,11,nt
COC(=O)C1=C(C)NC(=O)CC1c1cccc(Cl)c1Cl (centres undefined),7.5,9,8,-1.3,-0.3,?,-1,2,0,4%
COc1cccc(CN2CCN(CCCc3ccccc3)C(CCO)C2)c1OC (centres undefined),1.3,13,4,1.3,0.8,-4.3,15,-9,-8,nt
Cc1cc(S(=O)(=O)NC2CCCCC2)ccc1OCC(=O)N1CCOCC1,1.6,-1,7,2.7,0.8,2.2,-21,-4,-8,-6%
CN(Cc1ccccc1)S(=O)(=O)c1ccc(OCC(=O)N2CCOCC2)cc1,nt,nt,nt,nt,-3.4,-2.4,-7,-6,-6,1%
N#Cc1cc2c(nc1Cl)CCCC2,nt,nt,nt,nt,0.7,1.5,-23,6,-1,-2%
CN1CCN(C(=O)c2c(NC(=O)c3ccco3)sc3c2CCC(C(C)(C)C)C3)CC1 (centres undefined),nt,nt,nt,nt,0.1,-5.1,-7,0,4,-8%
CC(NC(=O)[C@H](Cc1c[nH]c2ccccc12)NC(=O)[C@@H]1Cc2ccccc2CN1)c1ccccc1 (some centres undefined),6.6,nt,nt,nt,-0.2,0.4,-7,-6,-6,nt
O=C(Nc1nc2ccc(F)cc2s1)C1=COCCO1,-18,-20*,-16*,6.8*,1.5,0.5,7,13,-3,-1%
COc1ccc(S(=O)(=O)NC2CCCC2)c(Cl)c1Cl,nt,nt,nt,nt,0.1,-0.3,-19,-8,-44,0%
O=C(Nc1cccc([N+](=O)[O-])c1)c1ccc2c(c1)OCO2,nt,nt,nt,nt,-5.2,-0.8,-12,5,4,8%
S=C1N(c2ccccc2)C(c2ccc(Cl)cc2)N2CCCN12 (centres undefined),nt,nt,nt,nt,1.2,3.2,3,-3,-3,-2%
O=C(NCCOc1ccc(F)cc1)C1CCC(=O)N(CC2CCCCC2)C1 (centres undefined),-3.4,-1,-10,0.8,0.9,3.4,1,-6,-10,nt
SMILES,MLL AF4-AF9 inh,rRNA inh HTS,rRNA inh HTS OD600,rRNA inh HTS RFP,Bfl-1 A1 inh,RanGTP-Imp inh,T cruzi repl,Beta apoptosis,Calb FLC,Vif A3G
O=C(CS(=O)(=O)c1ccc(Cl)cc1)NCCS(=O)(=O)c1ccc(Cl)cc1,-0.9,7,5,-1.7,1.0,0.5,3,nt,-12,17%
CC12CN3CC(=O)N4CC5(C)CN(CC(C)(C4)C5=O)C(=O)CN(C1)CC(C)(C3)C2=O,nt,nt,nt,nt,-0.1,3.1,-4,-3,?,0%
CCC(C)NC(=O)c1cn(CC)c2ccc(S(=O)(=O)N(C)C)cc2c1=O (centres undefined),-6.9,-3,-1,-1.0,-0.2,-0.8,7,-3,0,?
CC(C)=CC(=O)OCC(=O)NC1CCCc2ccccc21 (centres undefined),0.5,10,10,-8.3,-1.0,14,-6,4,-21,4%
Cc1cc(=O)[nH]c(SCC2(O)C3CC4CC(C3)CC2C4)n1 (centres undefined),nt,nt,nt,nt,-0.6,3.2,-1,-9,2,3%
COc1ccccc1-c1ccc(SCc2ccc([N+](=O)[O-])cc2)nn1,11,10,2,1.2,-1.4,-3.5,9,1,12,2%
COc1ccc2nc(CC(C)(C)CC(=O)O)c[n+]([O-])c2c1,nt,nt,nt,nt,0.1,1.3,-6,-8,3,0%
CCCCn1c(N)c(N(CCOC)C(=O)Cn2c(=O)oc3ccccc32)c(=O)[nH]c1=O,-1.6,7,1,-0.4,0.1,0.4,0,3,4,2%
CN(Cc1cccs1)C(=O)CCc1ccc(S(=O)(=O)N2CCOCC2)cc1,nt,nt,nt,nt,-1.3,4.8,13,2,-1,20%
CCN(CC)C(=O)CSc1nc2ccccc2c(=O)[nH]1,nt,nt,nt,nt,0.3,-1.7,-4,1,30,0%
CC(C)(C)c1ccc(C(=O)NCC(=O)OCC(=O)N2CCCC2)cc1,-2.9,5,14,-3.2,-0.2,nt,nt,-6,nt,5%
COc1ccc(C)cc1NC(=O)Nc1cccc(C)c1,1.6,-12,-12,-5.5,-2.9,4.0,35,-7,-35,-5%
C/C(=N/NS(=O)(=O)c1ccccc1)c1ccc(Cl)cc1,0.3,-1,-5,1.8,0.4,-1.2,-2,-6,-11,2%
Clc1ccc(-c2csc(N/N=C\c3cccnc3)n2)cc1,2.8,-21*,-6.1*,3.4*,-0.4,-1.3,55*,2,-15,-6%
CCCCCn1c(NCc2ccco2)nc2ccccc21,-0.8,-33,-60,-5.9,0.5,-0.9,-2,-4,0,11%
COc1ccc(Cl)cc1NC(=O)CSc1nc(N2CCCCC2)nc(N2CCCCC2)n1,nt,nt,nt,nt,-0.3,0.7,13,-5,5,10%&10%
CC(=O)N1c2ccc(S(=O)(=O)N3CCC(C(=O)NC4CCCC(C)C4C)CC3)cc2CC1C (centres undefined),3.7,-5,-7,-1.3,0.3,1.3,9,-3,-8,nt
Cc1cccc(COC(=O)C(Cc2ccccc2)NC(N)=O)c1 (centres undefined),-8.8,-3,6,0.6,0.3,-2.8,-13,nt,-2,nt
O=C(Nc1ccccc1O)c1ccc([N+](=O)[O-])cc1,0.0,11,15,1.8,-0.9,11,-2,1,5,nt
O=C(CN(C(=O)CNC(=O)c1cccs1)c1cccc(F)c1)NC1CCCC1,1.0,3,3,-3.0,0.3,?,-11,1,2,nt
CC(C)(C)OC(=O)NCCCCCNC(=O)c1nc[nH]c1C(=O)NCCCCCNC(=O)OC(C)(C)C,5.0,2,-6,24,0.3,nt,nt,-2,nt,nt
Cc1cc(C(=O)NCC2CCCCC2)ccc1[N+](=O)[O-],-1.3,3,9,-0.3,0.8,-1.2,?,-1,-3,nt
Cc1c(C(=O)Nc2ccc3oc(-c4cccnc4)nc3c2)oc2ccccc12,nt,nt,nt,nt,-0.4,5.1,21,33,-8,-8%
CN1C(=O)NC(c2ccc(O)cc2)C2=C1CN(c1cccc3ccccc13)C2=O (centres undefined),-0.2,5,7,2.6,0.1,6.8,-30,0,33,nt
N#Cc1ccccc1OCC(=O)NC(N)=O,nt,nt,nt,nt,-0.1,-0.5,-7,-5,2,3%
SMILES,MLL AF4-AF9 inh,rRNA inh HTS,rRNA inh HTS OD600,rRNA inh HTS RFP,Bfl-1 A1 inh,RanGTP-Imp inh,T cruzi repl,Beta apoptosis,Calb FLC,Vif A3G
CCC1CCCCN1C(=O)c1ccc(OC2CCN(C(=O)C3CC3)CC2)cc1 (centres undefined),-0.3,-14,-9,-2.2,0.2,5.0,-21,-2,-22,nt
Cc1ccc(NC(=O)C2CCN(c3ncnc4c3nc3n4CCCCC3)CC2)nc1,-12,0,-13,-0.1,1.7,-1.0,-8,-5,-7,nt
CCCCP(=O)(CCCC)Cc1ccccc1,nt,nt,nt,nt,1.7,-0.6,4,-2,12,-1%
Cc1ccccc1NC(=O)C1CCCN(S(=O)(=O)c2cccc3cccnc23)C1 (centres undefined),-1.9,-5,-4,-0.8,0.6,-1.4,-2,6,-2,-2%
Cc1cccc(N=Cc2cc(Br)cc(Cl)c2O)c1,-1.3,7,6,2.3,-0.1,-3.1,-10,-3,-7,4%
COc1ccccc1N1CCN(C(=S)Nc2ccccc2)CC1,11&2.1,4&7,-6&10,0.5&-0.8,0.5,-2.4,-12,-2,5,-1%
CCCCc1nc2cc(C(=O)NCCc3c(C)n[nH]c3C)ccc2o1,-2.1,2,3,-2.9,1.4,-2.8,1,-2,4,nt
O=[N+]([O-])c1cc(C(F)(F)F)ccc1NCCNC(=S)Nc1ccc(Cl)cc1,15,-48,-69,-17,-0.8,-4.9,?,36,-15,3%
CCOc1ccccc1N1CCN(C(=O)c2ccc(OCC(=O)N3CCOCC3)c(OC)c2)CC1,10.0,4,10,0.3,0.0,2.2,-8,-7,1,nt
COc1nc(N(C)S(=O)(=O)c2ccc(C)cc2)nc(C)c1Cl,nt,nt,nt,nt,0.6,nt,2,1,-11,3%
O=C(Cn1c(=O)cnc2ccccc21)NC1CCC(O)CC1 (centres undefined),-1.9,8,8,0.0,-0.1,-2.5,-5,-2,0,6%
C=CCNC(=O)NC(=O)COC(=O)C(C)Oc1ccc(Cl)cc1Cl (centres undefined),-1.7,10,6,2.9,0.6,2.4,-4,-4,-20,-8%
